TRPML1 agonist = agonists of human TRPML1 channel; 410,000 tested, 0.12% active; TRPML1-expressing cells, Ca2+ dye fluorescence, FDSS; host cell line not named in the record; reference of the full effect not given here; Q9GZU1; activation, % (test concentration not listed); in the data active = activation above about 50%; inconclusive = about 30% to 50%; inactive = below about 30%; note: 0% is about no effect; the text of the record puts the active cut at 80%
Target sequence (Q9GZU1 whole entry, looked up): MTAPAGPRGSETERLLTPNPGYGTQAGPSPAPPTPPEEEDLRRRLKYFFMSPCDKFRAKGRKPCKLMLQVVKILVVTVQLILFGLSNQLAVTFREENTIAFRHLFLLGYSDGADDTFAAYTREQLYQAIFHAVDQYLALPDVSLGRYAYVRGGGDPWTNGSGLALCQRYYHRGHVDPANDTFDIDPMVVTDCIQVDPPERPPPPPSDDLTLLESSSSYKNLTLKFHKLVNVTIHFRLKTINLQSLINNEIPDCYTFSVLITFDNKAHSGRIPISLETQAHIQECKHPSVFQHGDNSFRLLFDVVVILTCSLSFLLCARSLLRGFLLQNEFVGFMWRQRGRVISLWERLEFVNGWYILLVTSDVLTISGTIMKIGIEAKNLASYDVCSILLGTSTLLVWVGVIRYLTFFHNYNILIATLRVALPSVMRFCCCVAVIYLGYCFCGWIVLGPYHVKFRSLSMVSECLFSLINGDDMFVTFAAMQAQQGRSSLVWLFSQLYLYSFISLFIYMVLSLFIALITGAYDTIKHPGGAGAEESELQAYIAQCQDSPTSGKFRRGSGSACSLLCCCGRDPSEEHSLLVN
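Tetracycline-induced TRPML1-DL cells are seeded and incubated overnight before loading with a no-wash Ca2+ dye and quencher. Agonist activity is taken from the 110 s fluorescence read following compound pin-transfer on an FDSS, before EC80 54-4 challenge.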
TRPML1 inh = inhibitors of human TRPML1 channel. Q9GZU1. TRPML1-inducible cells, Ca2+ dye fluorescence, FDSS; active compounds read low; inhibition of EC80 agonist-evoked calcium signal. activity change, negative = inhibition, % (test concentration not listed). 390,000 tested, 0.02% active. AID 624415; in the data active means activity change below about -50%; inconclusive means about -30% to -50%; inactive means above about -30%;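 note: stimulus is agonist 54-4 at its EC80 concentration; % is set by controls: 0 for no effect and ±100 for the full control effect; compound concentration not given in the record; the text of the record puts the active cut at -80%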
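TRPML1-DL cells, Tet-induced overnight (~16 h, 37 °C) at 1,500 cells/well, were loaded with Ca8 no-wash dye plus quencher for 45-90 min at room temperature. Compounds were pinned during FDSS kinetic reading; agonist 54-4 at EC80 (4 uM final) then added.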
gsp agonist = activates gsp, the McCune-Albright syndrome mutation. gsp mutant cells, cAMP HTRF, 30 min; control for the full effect not named in the record. Potency, µM (doses to about 76.9 µM), for the others: at the top dose activation (cAMP increase), usual class: activators. 340,000 tested, 0.13% active; active = well fitted activation curve with a large enough effect; inconclusive = small, poorly fitted or top-dose-only effect, or another doubt; inactive = no such curve, though single readings can be large or run the other way; cell line not stated here;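 note: phosphodiesterase inhibitor Ro 20-1724 added with compounds to block cAMP breakdown; potency is the fitted concentration of half-maximal effect; nearly all actives have a fitted effect of over 60% in size; about a fifth of the inactives were tested at one dose only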
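Cells stably selected in G418 were plated at 2000/well, grown 16-24 hr, then given compounds in DMSO with the PDE inhibitor […] (300 uM solution added) for 30 min at 37C; cAMP was read by HTRF.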
Menin MLL FP FL = menin-MLL binding inhibition, fluorescein peptide. Fluorescence polarization, fluorescein-MLL peptide displacement from menin. FP activity change, % at 61.4 µM. 290,000 tested, under 10 active; inconclusive = falling polarisation curve, or a change in total fluorescence; inactive = total fluorescence flat and polarisation flat or rising; no compound was filed as active; the % refers to the polarisation; negative = inhibition;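 note: % of control where 0% means no effect; inhibitors lower the polarisation; unlabelled MLL peptide was the positive control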
ClpP mod = qHTS Assay for Activators of ClpP | ATP-dependent Clp protease proteolytic subunit (Bacillus subtilis (strain 168)), P80244 | purified B. subtilis ClpP, FRET peptide cleavage, 20 min | Potency, µM (highest dose often 57.5 µM), without a hit: at the highest dose activity change, negative = active | 340,000 tested, 1.9% active | AID 651965, 2013; active = well fitted falling curve with a large enough effect; inconclusive = small, poorly fitted or top-dose-only effect; inactive = no such curve, though single readings can be large or run the other way; note: potency is the fitted concentration of half-maximal effect; the source files actives as falling curves though it sought activators and does not explain the sign; nearly all actives have a fitted effect of over 65% in size; many hits overshoot -100%
Target sequence (P80244 whole entry, looked up): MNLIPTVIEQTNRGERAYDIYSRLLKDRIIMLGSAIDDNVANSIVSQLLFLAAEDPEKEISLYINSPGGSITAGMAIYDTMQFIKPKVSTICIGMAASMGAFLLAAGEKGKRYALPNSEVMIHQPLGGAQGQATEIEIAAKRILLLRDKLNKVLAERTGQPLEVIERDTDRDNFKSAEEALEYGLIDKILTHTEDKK
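ClpP 10 microg/mL final, pH 8 Tris/KCl buffer with BSA, glycerol, Tween-20; compound pinned in; FRET-FV substrate; RT 20 min; Ex320/Em430; ΔFRET vs ADEP 5.8 microM, DMSO, no enzyme.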
gsp antagonist = gsp mutant antagonism; gsp-mutant cells, cAMP HTRF, 30 min; control for the full effect not named in the record; Potency, µM (series often up to 76.9 µM), for the others: at the top dose activity change, negative = inhibition, actives largely listed as inhibitors; 340,000 tested, 0.4% active; active = falling curve of any shape with a large fitted effect; inconclusive = falling curve, mostly with a smaller effect; inactive = flat or rising curve; cell line not stated here;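 note: intracellular cAMP measured with PDE inhibitor Ro 20-1724 present during compound exposure; potency is the fitted concentration of half-maximal effect; % is set by controls: 0 for no effect and ±100 for the full control effect; nearly all actives have a fitted effect of over 65% in size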
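G418-selected cells were plated in DMEM/10% FBS for 16-24 h at 37C, then treated with compounds plus the PDE inhibitor […] (300 uM solution added) for 30 min at 37C. Intracellular cAMP was measured by HTRF after 30 min lysis at room temperature.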
An asterisk follows results filed as active; ? = inconclusive; . = not tested or not shown; & = joins results of further samples; [ ] = another dose, or the depositor's remark. Random draw from the library; 2.1% or so of the library scored in one or more.

SMILES	TRPML1 agonist	TRPML1 inh	gsp agonist	Menin MLL FP FL	ClpP mod	gsp antagonist
CCCCN(C(=O)c1ccc2c(c1)OCO2)c1c(N)n(CC(C)C)c(=O)[nH]c1=O	-0.6	-4	-28%	.	0.9%	6%
COc1ccc(C(=O)CSc2n[nH]c(-c3ccco3)n2)cc1	2.7	1	-5%	6.8	-4.3%	-4%
O=C(Nc1ccc(-c2csc(Nc3ccccc3)n2)cc1)c1cc([N+](=O)[O-])cc(C(F)(F)F)c1	-0.5	-1	.	1.3	0.7%	0%
Cc1c(CNC(C)CCc2ccccc2)c(C(=O)O)c(C)n1Cc1ccc(F)cc1Cl (stereo not drawn)	1.4	-9	.	.	0.3%	.
O=C(c1cc([N+](=O)[O-])ccc1N1CCOCC1)N1CCCC1	-0.2	3	15%	7.4	-1.5%	15%
CC1CCN(C(=O)CCc2nnc3ccc(N4CCC5(CC4)OCCO5)nn23)CC1	-0.5	-8	?	0.2	-1.9%	-3%
CCOC(=O)c1c(-c2ccccc2)[nH]c2ccc(O)cc12	0.4	-8	?	6.3	32µM*	-8%
O=C1C(=O)N(CCN2CCOCC2)C(c2ccccc2F)/C1=C(\O)c1ccc(S(=O)(=O)N2CCOCC2)cc1 (stereo not drawn)	-1.4	3	7%[15.4 µM]	.	-20%	5%
O=C(Nc1nc2cc3c(cc2s1)OCCO3)C1CCCCC1	0.0	-12	?	.	-1.7%	-7%
COc1ccc(OC)c(NC(=O)C2CCN(C(=O)c3cccs3)CC2)c1	-0.3	2	-11%[15.4 µM]	0.3	.	-1%
COCCNC(=O)C(=O)NCC(c1cccnc1)N1CCN(c2ccccc2)CC1 (stereo not drawn)	0.0	-15	.	.	0.8%	.
CCc1cccc(C)c1NC(=O)Nc1ccc2c(c1)OCO2	-0.2	-8	-30%	0.1	115%	6%
COc1cccc(CN2CC(C(=O)N3CCN(c4ccc(Cl)cc4)CC3)CCC2=O)c1 (stereo not drawn)	-0.1	-1	-3%[15.4 µM]	.	0.9%	-16%
Cc1cc(C)c(C)c(OCC(=O)NCc2nc(-c3ccccc3)no2)c1	4.1	-7	-27%	2.3	-0.6%	-10%
CCCCNC(=O)c1cc2c(-c3ccc(Cl)cc3)nn(C)c2s1	2.2	-2	19%	2.2	4.2%	-8%
CCSc1nnc(NC(=O)CCNS(=O)(=O)c2cc(Br)cnc2N)s1	0.6	-3	7%	4.7	-14%	-35%
Cn1[nH]c(C(F)(F)F)c(C=Nc2ccc(Cl)cc2)c1=O	-0.6	5	-27%	0.0	1.0%	5%
O=C(CSc1ncccc1C(=O)O)NC12CC3CC(CC(C3)C1)C2	0.0	-7	12%[15.4 µM]	1.1	.	.
O=S(=O)(c1ccc(-c2csc(=Nc3ccc(F)cc3)n2CCCCCCO)cc1)N1CCCC1	-0.1	9	.	.	-27%	.
CCOc1cc(C#N)c(-n2nnc3c(sc4nc(C)cc(C)c43)c2=O)cc1OCC	0.4	44	.	.	0.2%	.

The final two compounds of the part before come first, to join the parts.
SMILES	TRPML1 agonist	TRPML1 inh	gsp agonist	Menin MLL FP FL	ClpP mod	gsp antagonist
O=S(=O)(c1ccc(-c2csc(=Nc3ccc(F)cc3)n2CCCCCCO)cc1)N1CCCC1	-0.1	9	.	.	-27%	.
CCOc1cc(C#N)c(-n2nnc3c(sc4nc(C)cc(C)c43)c2=O)cc1OCC	0.4	44	.	.	0.2%	.
CCOc1cc2[nH]c(=O)n(CC3CCC(C(=O)NCCC(C)C)CC3)c(=O)c2cc1OCC (stereo not drawn)	-0.7	17	29%	.	.	1%
NC(=O)c1cc(S(=O)(=O)Nc2ccccc2)cs1	-0.8	0	8%[15.4 µM]	5.8	-2.1%	2%
OCCN1CCN(CC/C=C2/c3ccccc3CSc3ccccc32)CC1	0.3	-14	-25%	.	-3.6%	9%
CC1CCN(S(=O)(=O)c2ccc(NC(=O)Cc3cccs3)cc2)CC1	-0.4	-2	4%	7.2	-1.6%	9%
O=C(O[C@H]1[C@H](Cc2ccccc2)NS(=O)(=O)[C@H]2C[C@@H]3C=C[C@]12O3)c1ccc([N+](=O)[O-])cc1	-0.7&-0.4	-5	15%	.	1.1%&-1.0%	-28%
COc1ccc(N2CCN(S(=O)(=O)c3c(C(=O)N4CCOCC4)c(C)n(C)c3C)CC2)cc1	0.2	5	?	.	-6.6%	5%
CCC(c1nnnn1C(C)(C)C)N(Cc1cccs1)Cc1cc2cc(C)c(C)cc2n2nnnc12 (stereo not drawn)	-1.4	19	1%	.	-20%	1%
Cc1cc(C)cc(NC(=S)N2CC(C)OC(C)C2)c1 (stereo not drawn)	-0.6	15	?	.	-1.0%	11%
Cc1ccccc1S(=O)(=O)Nc1ncnc2ccccc12	-0.3	-2	0%[15.4 µM]	6.1	.	4%
COc1ccc(C(C(=O)NC(C)(C)C)N(C[C@H]2CC[C@@H]([C@@H]3CC[C@H](CO)O3)O2)C(=O)c2ccccc2)cc1 (stereo partly drawn)	-0.1	26	.	.	1.6%	-5%
COc1ccc(COCC(O)CN2CCC(C(N)=O)CC2)cc1OC (stereo not drawn)	-0.3	-12	?	1.7	.	10%
O=C(Nc1nccs1)c1ccc(N2C(=O)C3CCCCC3C2=O)cc1 (stereo not drawn)	0.9	-8	5%[15.4 µM]	-3.2	.	-17%
Cc1cc2oc(=O)c3c(c2cc1OC(=O)c1ccco1)CCCC3	-1.1	-8	-2%	3.4	-6.2%	-1%
Cc1ccc2c(C)c(C(=O)N3CCC(c4nc5ccccc5s4)CC3)oc2c1C	0.8	14	.	.	-4.3%	.
C[C@H](O)C(=O)C1=Nc2c(nc(N)[nH]c2=O)NC1	-0.6	2	.	?	4.6%	-10%
COC(C/C=C/[C@@H](O)[C@@H](C)OCc1ccccc1)OC	-0.1	18	-5%	.	-2.8%	10%
CCc1c(O)nc(SCC(=O)N2CCOCC2)n(-c2ccccc2)c1=O	0.0	0	26%	10	-0.5%	-1%
O=C(Oc1ccc(/C=N/NC(=O)c2ccccn2)cc1)c1cccc(Br)c1	-0.6	11	-1%	.	-16%	7%
COc1ccc(N2CCN(C(CNC(=O)C(C)(C)C)c3cccnc3)CC2)cc1 (stereo not drawn)	-0.9	10	-23%	-0.4	-2.6%	1%
CCN(CC1CCCN(CCc2cccc(F)c2)C1)C(=O)c1cc2ccccc2o1 (stereo not drawn)	5.6	26	?	4.7	-1.7%	-8%
CCC(C(=O)OCC(=O)Nc1cc(Cl)ccc1Cl)c1ccccc1 (stereo not drawn)	4.5	42	2%	-1.4	25µM*	0%
CN(Cc1ccccc1)C(=O)COC(=O)c1ccc(S(=O)(=O)N(C)C)cc1	-0.5	-17	-2%[15.4 µM]	0.9	.	-10%
O=C(Cn1cnc2c(nnn2Cc2ccccc2)c1=O)c1ccc(Cl)cc1	2.0	5	-43%	2.0	-1.8%	7%
CCCCc1nccn1CCn1ccnc1CCCC	-0.9	11	?	0.8	-0.2%	13%
COC(=O)c1ccc(Cl)cc1NC(=O)N(Cc1ccc(C)o1)C1CCN(C(C)=O)CC1	-1.3	-12	.	.	-6.5%	.
Cc1nc2ccccn2c1-c1csc(Nc2cccc(O)c2)n1	0.9	-17	2%[15.4 µM]	3.4	.	-19%
Cc1ccc(-c2nnnn2-c2ccccc2C(=O)O)cc1	1.0	23	-6%	.	-0.1%	-3%
COc1ccc(OC)c(C(=O)/C=C/c2cccnc2)c1	0.2	10	-19%	2.5	.	1%
Cc1cc(C(=O)N2CCN(S(=O)(=O)c3ccc(C)c(C)c3)CC2)no1	-0.4	-7	2%	.	-0.6%	3%
COc1ccc(NC(=O)CSc2nc3sc(C)c(C)c3c(=O)n2Cc2ccco2)cc1	0.5	5	20%	0.8	-1.7%	11%
CC1CC(C)(C)N2C(=O)C3(Nc4ccccc4S3)c3cccc1c32 (stereo not drawn)	0.5	19	-6%	-0.4	-1.2%	-5%
O=C(CCC(=O)N(CC(=O)NC1CCCC1)Cc1ccc2c(c1)OCO2)Nc1ccccn1	-0.1	19	-5%	1.4	0.5%	4%
Cc1cccc(OCC(=O)Nc2ccc(S(=O)(=O)N3CCCC3)cc2)c1	2.0	42	-14%[15.4 µM]	-0.3	-2.3%	-8%
CCn1cc(Cl)c(C(=O)Nc2c(C)nn(Cc3c(F)c(F)c(F)c(F)c3F)c2C)n1	0.1	-16	?	-2.5	0.1%	-1%
CCCCn1c2ccc(F)cc2c2nnc(SCCN3CCCCC3)nc21	0.1&-0.7	-12&-2	-7%	-24	0.6%&-1.6%	-7%
CCC12CN3CC(CC)(CN(C1)C31C(=O)N(C)c3ccc(C)cc31)C2=O (stereo not drawn)	0.5	19	-11%[15.4 µM]	5.4	-1.8%	14%
CCOC(=O)CC(=O)CSCC(=O)Nc1ccc(C)cc1	3.3	0	-47%[inhibitor]	4.2	-2.4%	1%
COCCNC(=O)CSc1nc2ccccc2c(=O)n1CC1CCCO1 (stereo not drawn)	-1.0	7	-4%	-2.0	1.8%	2%
CCOc1ccc(/C(O)=C2/C(=O)C(=O)N(c3ncccn3)C2c2ccccc2)cc1 (stereo not drawn)	0.7	19	-3%	-4.4	-2.7%	-4%
CN(CC1CCOCC1)C(=O)CC1C(=O)NCCN1Cc1cccc(F)c1 (stereo not drawn)	-0.1	-11	-23%	-22	-20%	-3%
COc1ccc2c(c1)N(C)/C(=C1/SC(=NCc3ccccc3)N(c3ccccc3)C1=O)S2	-0.6	34	15%	3.7	6.4%	48%[activator]
COC(=O)c1sc(N2C(=O)c3oc4ccccc4c(=O)c3C2c2cccc(O)c2)nc1C (stereo not drawn)	0.3	-13	5%[15.4 µM]	0.0	.	-3%
COc1cccc(CNC(=O)Cn2cccc2)c1	0.6	-6	-7%	-1.9	-24%	9%
COC(=O)CCn1nc(-c2ccc(C)cc2)c2ccccc2c1=O	-0.9	17	-2%[15.4 µM]	-0.6	.	-25%
CCn1cc(-c2ccccc2)c(C(=O)O)c1-c1ccc(OC)cc1	-0.8	2	.	.	-19%	-1%
C=CCOc1ccc(/C(O)=C2\C(=O)C(=O)N(CCOC)C2c2cccnc2)cc1 (stereo not drawn)	1.4	-5	?	-2.6	0.8%	24%
Cc1ccc(C)c(CN2C(=O)CSc3ccc(C(=O)NCc4ccccc4)cc32)c1	1.4	17	.	.	-0.5%	.

Three of the entries above in order of their number in Menin MLL FP FL, smallest number first.
SMILES | Menin MLL FP FL
COCCNC(=O)CSc1nc2ccccc2c(=O)n1CC1CCCO1 (stereo not drawn) | -2.0
CCc1cccc(C)c1NC(=O)Nc1ccc2c(c1)OCO2 | 0.1
CCSc1nnc(NC(=O)CCNS(=O)(=O)c2cc(Br)cnc2N)s1 | 4.7

High-throughput results: PubChem BioAssay, National Center for Advancing Translational Sciences (NCATS)
